RecA intein inh = blocks M. tuberculosis RecA intein splicing; inhibition, %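 (about 9 µM by stock and volumes)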; 0.75% of 290,000 active; P9WHJ3; cell-free RecA intein splicing, fluorescence; in the data active = inhibition above about 30%; inconclusive = no clear call, values can overlap the other calls;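 also: 0% = vehicle wells and 100% = reference inhibitor control wells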
Target sequence (P9WHJ3 whole entry, looked up): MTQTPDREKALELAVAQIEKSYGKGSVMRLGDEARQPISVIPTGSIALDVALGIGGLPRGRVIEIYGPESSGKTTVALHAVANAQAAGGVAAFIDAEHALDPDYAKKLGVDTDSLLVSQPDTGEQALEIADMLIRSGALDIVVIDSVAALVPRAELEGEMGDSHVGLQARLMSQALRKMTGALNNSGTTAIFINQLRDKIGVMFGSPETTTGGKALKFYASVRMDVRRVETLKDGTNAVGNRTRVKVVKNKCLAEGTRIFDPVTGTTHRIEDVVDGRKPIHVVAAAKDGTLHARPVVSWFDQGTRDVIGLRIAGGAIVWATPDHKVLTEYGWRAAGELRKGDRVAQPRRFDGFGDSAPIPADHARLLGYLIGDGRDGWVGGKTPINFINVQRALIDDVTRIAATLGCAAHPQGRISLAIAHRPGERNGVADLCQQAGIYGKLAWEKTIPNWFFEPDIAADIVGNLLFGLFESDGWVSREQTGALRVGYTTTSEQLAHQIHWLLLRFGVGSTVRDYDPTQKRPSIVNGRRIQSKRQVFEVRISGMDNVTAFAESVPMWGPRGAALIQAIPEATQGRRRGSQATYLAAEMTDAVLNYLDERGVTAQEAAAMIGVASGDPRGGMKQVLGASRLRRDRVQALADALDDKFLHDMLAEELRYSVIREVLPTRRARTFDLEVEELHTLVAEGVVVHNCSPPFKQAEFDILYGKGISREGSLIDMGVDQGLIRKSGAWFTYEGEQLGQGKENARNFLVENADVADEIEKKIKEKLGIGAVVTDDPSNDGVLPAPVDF
Mtb H37Rv = M. tuberculosis H37Rv growth inhibitors, H37Rv strain (AID 1626) | 0.95% of 220,000 active | M. tuberculosis H37Rv growth inhibition; higher % means a stronger effect | inhibition, % at 10 µM, or IC50 in µM where a hit was titrated;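 active = confirmed in a dose series; inconclusive = inhibition above 80% but not taken into the dose series; inactive = below 80% or under 30% at every dose of the series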;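 also: bacteria incubated seven days before Alamar blue readout; 0% = bacteria only wells and 100% = bacteria with antibiotic wells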
Arbovirus inh = blocks arbovirus infection; arbovirus infection cell-based antiviral screen; 0.37% of 200,000 active; inhibition, % at 10 µM;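 active = inhibition from about 30%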;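 also: bluetongue infection of BSR cells; cell survival read as ATP light after 72 h; 0% = infected wells without compound and 100% = uninfected wells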
YopH PTP inh = blocks Yersinia enterocolitica YopH tyrosine phosphatase. 0.16% of 140,000 active. inhibition, %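 (about 10 µM by stock and volumes)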. AID 898. fluorescence Ex485/Em525;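 active = inhibition of 50% or more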;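 also: controls were vehicle for no effect and minimum signal wells for full effect; inactives centre near -20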
Mtb bLac sens = beta-lactam sensitization of Mtb H37Rv | M. tuberculosis H37Rv growth with meropenem, percent inhibition; hits of this screen are not shown here | inhibition, % at 25 µM | 0.27% of 330,000 active | AID 434955;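 active = about 74% or more and at least 40 points above the plate without the antibiotic, then above 30% in a dose series; inconclusive = first-round hits that could not be retested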;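 also: growth measured after seven days incubation then overnight dye step; 0% = bacteria only wells and 100% = bacteria with antibiotic; twin plates without the antibiotic show which effects depend on it; some results filed as inactive read as strong as hits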
Arbovirus inh repeat = also measured in Arbovirus inh; calls as there; inhibition, %; measured here: 10K subset replicate screen; many hits read low in the repeat;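 first of two repeat runs on a subset; 0% = infected and 100% = uninfected wells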
Numbers without * were called inactive; ? = inconclusive; . = no result given. Only part of the results is shown; rates above refer to the full screens.

SMILES | RecA intein inh | Mtb H37Rv | Arbovirus inh | YopH PTP inh | Mtb bLac sens | others
Fc1ccc(-c2cn(-c3ccccc3)c3[n+]2CCS3)cc1 | 4.9 | -1% | . | . | 0
COc1ccc(C2C(C(=O)N3CCCC3)c3cc(OC)c(OC)cc3C(=O)N2C)cc1 (stereo unspecified) | . | 7% | -1 | -13 | 2 | Arbovirus inh repeat=0
CC(=O)C1=C(O)C(=O)N(C)C1c1ccccc1F (stereo unspecified) | 0.2 | 0% | 9 | -20 | 1
O=C(NCC(=O)N(c1cnc2ccccc2c1)C(C(=O)NC1CCCC1)c1ccncc1)c1ccco1 (stereo unspecified) | -2.8 | . | 1 | 15 | -10
CCOC(=O)c1sc2nc(C)nc(NC3CCC(O)CC3)c2c1C (stereo unspecified) | 1.7 | . | . | . | 4
CCN(CC(=O)Nc1ccc(NC(C)=O)cc1)C(=O)c1c(-c2c(F)cccc2Cl)noc1C | -7.2 | . | . | . | -12
CC(=O)Nc1ccc(S(=O)(=O)N2CCC3(CC2)OCCO3)cc1 | -0.4 | . | . | . | -4
COc1ccc(CCN2C(=O)CC(NNc3ccc([N+](=O)[O-])cc3)C2=O)cc1OC (stereo unspecified) | 3.0 | -6% | -14 | . | 2
OC1CCCN(CC(O)c2ccccc2)C1 (stereo unspecified) | -1.3 | 8% | 2 | . | -2
N#C/C(=C\c1c(N2CCC(C(N)=O)CC2)nc2ccccn2c1=O)S(=O)(=O)c1ccc(Cl)cc1 | -4.4 | -3% | . | . | 16
CC(C)(C)c1cc(CCC(=O)N2CCCC2)cc(C(C)(C)C)c1O | 1.0 | . | . | . | 1
CCSC1=C(C#N)C2(CCCCC2)C(C#N)C(=O)N1 (stereo unspecified) | 0.2 | -2% | -3 | -22 | 2
COc1cn(-c2ccccc2)nc1C(=O)NCc1ccccc1 | 1.5 | . | . | . | -2
CCN(CC(=O)Nc1ccc(OC)cc1)C(=O)c1cc(S(=O)(=O)N2CCOCC2)ccc1N1CCCC1 | 1.9 | . | . | . | -5
Cc1nc(C(=O)O)nn1-c1ccc([N+](=O)[O-])cc1 | -1.9 | -3% | 2 | . | -4
CCOC(=O)CCSc1cc(C)c2ccccc2n1 | 3.8 | 2% | -3 | . | -5
O=S(=O)(N/N=C1/CC(c2ccccc2)Oc2ccccc21)c1ccc(Br)cc1 (stereo unspecified) | -20 | -3% | -14 | -9 | 14
COCC(C)n1c(C)cc(C(=O)COC(=O)CNC(=O)c2ccccc2)c1C (stereo unspecified) | -3.4 | 1% | -6 | -21 | 4
CCCCOc1ccccc1NC(=O)c1ccco1 | 3.4 | 12% | -7 | -15 | .
CC(C)C(C)(C#N)NC(=O)CSc1nc2scc(-c3ccco3)c2c(=O)n1-c1ccccc1 (stereo unspecified) | 1.5 | -5% | 10 | -22 | 2
CCOc1ccccc1N(CC(=O)Nc1ccc(OC)cc1)S(=O)(=O)c1ccccc1 | 2.2 | . | . | . | -7
COc1ccc(C(C)=O)cc1CSc1nnc(Nc2c(C)cccc2C)s1 | 4.0 | 2% | -3 | -28 | -2
CCc1nnc(NC(=O)C2CCC(CNc3c(N4CCC(C)CC4)c(=O)c3=O)CC2)s1 (stereo unspecified) | -3.5 | 0% | . | . | -13
COc1ccc(C(=O)C2CCN(CC(=O)Nc3ccccc3F)CC2)cc1 | 5.5 | . | . | . | -2
CCn1cnc2scc(-c3ccc(C)c(C)c3)c2c1=O | 0.4 | -5% | -11 | . | -3
Next results.
SMILES | RecA intein inh | Mtb H37Rv | Arbovirus inh | YopH PTP inh | Mtb bLac sens | others
O=C(Oc1ccc2c(c1)OCO2)c1ccc(F)cc1Cl | 13 | 5% | -2 | -6 | 100
N#Cc1cccc(NC(=O)CSc2nnc(-c3n[nH]c4ccccc34)o2)c1 | -2.6 | -11% | -3 | . | -8
Cc1cccc(-c2cccc(NC(=O)C3CCCN(Cc4cccnc4)C3)c2)c1 (stereo unspecified) | 5.8 | . | . | . | 21
CN(C)S(=O)(=O)Oc1ccsc1C(=O)Nc1ccc(Cl)c(Cl)c1 | 3.1 | 17% | 19 | -35 | 5
COc1ccc(CCNC(=O)c2nonc2N)cc1OC | -1.5 | -3% | 6 | -27 | -24
CCOC(=O)C1CCN(S(=O)(=O)c2c(C(=O)N3CCCCC3)c(C)n(C)c2C)CC1 | -0.4 | . | . | . | 2
Cc1ccc(NC(=O)C2CCN(C(=O)N3CCOc4ccccc43)CC2)cc1 | -0.8 | . | . | . | 3
Cc1cccc2nc(CSc3nc4[nH]ncc4c(=O)n3-c3cccc(Cl)c3)cc(=O)n12 | 0.4 | 4% | 6 | -31 | 6
COC(=O)c1ccc(/C=C/C(=O)c2ccc(OC)c(OC)c2)cc1 | 4.3 | 3% | -33 | -6 | 100
O=C(c1cc(COc2ccc(F)cc2F)on1)N1CC2C[C@@H]3CC1C[C@H](C2)C3 | 2.0 | . | . | . | 8
CC(=O)Nc1ccc(S(=O)(=O)NCCSc2ccccn2)cc1 | -1.0 | 2% | 10 | 6 | -5
CN1C[C@@H]2C(c3ccc(C(F)(F)F)cc3)C3(c4ccc(C#N)cc4)CC2(C3)[C@H]1c1ccccc1 (stereo partly specified) | 12 | 49% | . | . | 90
CC(=O)Oc1ccc(-n2c(=O)c3ccccc3c3ccccc3c2=O)cc1 | 2.9 | -6% | 1 | . | 38
CCOC(=O)c1cc(=O)n(-c2ccc(Cl)cc2C)[nH]1 | -3.4 | -4% | 2 | -42 | 2
Cc1c(Cl)cccc1N=c1c([N+](=O)[O-])nn(-c2ccccc2)n1O | 2.3 | 6% | -21 | -22 | -8
O=C(c1cccnc1)N1CCN(C(=O)c2ccccc2F)CC1 | . | -1% | 5 | 8 | -8
O=C(O)CCNC(=O)c1ccc(N=Nc2ccc(O)c(C(=O)O)c2)cc1 | 3.3 | 5% | . | . | .
Cc1ccc(Sc2ccc(NC(=O)CCl)cc2)cc1C | 66* | 73% | -34 | -7 | 95
C=CCOC(=O)C1=C[C@H](c2ccc(Br)cc2)C[C@H](OCc2ccc(CO)cc2)O1 | 12 | 5% | . | . | -6
CC(/C=N/NC(=O)c1cccc(F)c1)=C\c1ccccc1 | 1.2 | . | . | . | -1
CCCOC(=O)Oc1ccc2c(=O)c(Oc3cc(C)cc(C)c3)coc2c1 | 4.5 | 7% | -3 | 6 | -3
Cc1cccc(NC(=O)CSc2nnc(Cn3nnc(-c4ccccc4)n3)n2-c2ccccc2)c1 | -1.1 | -11% | -2 | -32 | 4
CCOC(=O)CN(C(=O)CSc1nnc(-c2ccc(OC)c(OC)c2)o1)c1ccccc1 | -2.1 | -4% | -11 | -34 | -3
CC(C)c1nnc(NC(=O)C2CCN(C(=O)c3ccco3)CC2)s1 | -1.3 | . | . | . | 0
COc1ccc(-n2c(Cc3cccn3C)nnc2SCC(=O)N2CCCc3ccccc32)cc1 | 2.4 | 6% | 0 | -2 | 0
More structures follow.
SMILES | RecA intein inh | Mtb H37Rv | Arbovirus inh | YopH PTP inh | Mtb bLac sens | others
O=C(O)c1ccccc1SCC(=O)N1CCCCC1 | 0.3 | -1% | 10 | -31 | -11
Brc1cccc(CNCc2cccs2)c1 | -2.5 | 15% | -2 | -32 | -6
Nc1nc(F)cc(NCc2ccccc2)n1 | 1.8 | -1% | -2 | . | -1
COc1cc(CN2CCC(CO)(CCOc3ccccc3)CC2)cc(OC)c1 | 1.4 | 1% | . | . | -6
N#CC1(NC(=O)CSc2nnc(-c3ccccc3F)n2N)CCCCC1 | 2.7 | . | . | . | 50
CC(=O)c1c(O)cc(C)n(Nc2nc(C)cc(C)n2)c1=O | -3.8 | -4% | -30 | -6 | 0
Cc1ccc(-n2cc(C(=O)c3ccccc3O)cn2)cc1 | 1.3 | . | 6 | 12 | 7
COc1ccccc1N(CC(=O)N1CCN(c2ccccc2)CC1)S(=O)(=O)c1ccc(C)cc1 | -1.5 | . | . | . | -19
CC(=O)N(C)c1ccc(NC(=O)C(Sc2ccccc2)c2ccccc2)cc1 (stereo unspecified) | 7.7 | 6% | -3 | . | -3
COC(=O)c1cn(Cc2ccccc2C)nn1 | -4.2 | -2% | -1 | -3 | -2
CN(CC(=O)NCc1ccc(F)cc1)S(=O)(=O)c1cccc2nsnc12 | 1.2 | -2% | 4 | -25 | 2
O=C(C1CCCCC1)N1CCCC(c2nc(-c3ccc(F)cc3)no2)C1 (stereo unspecified) | 1.2 | 2% | 6 | -39 | -2
Cc1cc(C)c(N=Cc2c(O)n(-c3nccs3)c(=O)c3ccccc23)c(C)c1 | 9.4 | 13µM* | 2 | -11 | 94
Cc1ccc(S(=O)(=O)NCc2ccco2)c(C)c1C | -0.4 | -17% | 5 | -33 | -2
Cc1ccc(OCCCC(=O)Nc2ccc(N3CCOCC3)cc2)cc1 | 3.6 | 9% | -4 | 2 | -10
NC(=O)C1CCN(C(=O)c2cnn(-c3ccccc3)c2NC(=O)c2ccco2)CC1 | -0.1 | 2% | 6 | -20 | -4 | Arbovirus inh repeat=1
O=[N+]([O-])c1ccc(/C=N/NC(=S)Nc2ccc(Cl)cc2Cl)s1 | . | ? | . | . | 89
COc1ccc(S(=O)(=O)N2CCCC(C(=O)Nc3cccc(C(C)=O)c3)C2)cc1 (stereo unspecified) | 0.9 | 6% | -7 | 10 | -5
O=C(N/N=C/c1ccccc1)c1ccc(-c2ccccc2)cc1 | 0.3 | . | . | . | 3
CC1CCN(C(=O)COC(=O)c2cccc(NS(=O)(=O)c3ccccc3)c2)CC1 | 0.4 | . | . | . | -3
CCN(CC)S(=O)(=O)c1ccc(Cl)c(NC(=O)COc2ccc(OC)cc2)c1 | 0.3 | -4% | 6 | . | 2
COCCn1c(SCC(=O)NCC2CCCO2)nc2c(c1=O)SC(C)C2 (stereo unspecified) | 1.1 | 0% | 1 | -21 | -3 | Arbovirus inh repeat=3
O=C(NCc1cccnc1)C1COc2ccccc2O1 (stereo unspecified) | -1.1 | . | 2 | -106 | .
CC(=O)c1c(C)[nH]c(C(=O)OCC(=O)Nc2sc3c(c2C#N)CCC(C)C3)c1C (stereo unspecified) | -2.6 | 0% | . | . | 9
Cc1ccc(C)c(-c2ccc(=O)n(Cc3c(F)cccc3Cl)n2)c1 | 28 | . | . | . | 12
O=C(NCCCNC(=O)c1ccco1)c1ccc(Cl)c(Cl)c1 | 0.1 | . | . | . | 0
Cc1cc(N2CCOCC2)ccc1/C=C1\NC(=O)N(Cc2ccccc2F)C1=O | -9.2 | -5% | -10 | . | -1
CCN(C(=O)N1CCOCC1)c1ccccc1 | -1.1 | . | . | . | 3
O=S(=O)(Cc1cc(Cl)nc(-c2ccccc2)n1)c1ccccc1 | 4.5 | 0% | 3 | -11 | 12

16 compounds out of the list, arranged by molecular weight, lowest first:
SMILES | RecA intein inh | Mtb H37Rv | Arbovirus inh | YopH PTP inh | Mtb bLac sens | others
CC(=O)C1=C(O)C(=O)N(C)C1c1ccccc1F (stereo unspecified) | 0.2 | 0% | 9 | -20 | 1
CCSC1=C(C#N)C2(CCCCC2)C(C#N)C(=O)N1 (stereo unspecified) | 0.2 | -2% | -3 | -22 | 2
CC(/C=N/NC(=O)c1cccc(F)c1)=C\c1ccccc1 | 1.2 | . | . | . | -1
CCn1cnc2scc(-c3ccc(C)c(C)c3)c2c1=O | 0.4 | -5% | -11 | . | -3
O=C(Oc1ccc2c(c1)OCO2)c1ccc(F)cc1Cl | 13 | 5% | -2 | -6 | 100
O=C(c1cccnc1)N1CCN(C(=O)c2ccccc2F)CC1 | . | -1% | 5 | 8 | -8
CC(C)(C)c1cc(CCC(=O)N2CCCC2)cc(C(C)(C)C)c1O | 1.0 | . | . | . | 1
O=C(O)CCNC(=O)c1ccc(N=Nc2ccc(O)c(C(=O)O)c2)cc1 | 3.3 | 5% | . | . | .
COc1cc(CN2CCC(CO)(CCOc3ccccc3)CC2)cc(OC)c1 | 1.4 | 1% | . | . | -6
O=C(c1cc(COc2ccc(F)cc2F)on1)N1CC2C[C@@H]3CC1C[C@H](C2)C3 | 2.0 | . | . | . | 8
Cc1cc(N2CCOCC2)ccc1/C=C1\NC(=O)N(Cc2ccccc2F)C1=O | -9.2 | -5% | -10 | . | -1
COc1ccc(C(C)=O)cc1CSc1nnc(Nc2c(C)cccc2C)s1 | 4.0 | 2% | -3 | -28 | -2
CC(=O)c1c(C)[nH]c(C(=O)OCC(=O)Nc2sc3c(c2C#N)CCC(C)C3)c1C (stereo unspecified) | -2.6 | 0% | . | . | 9
CCOc1ccccc1N(CC(=O)Nc1ccc(OC)cc1)S(=O)(=O)c1ccccc1 | 2.2 | . | . | . | -7
O=C(NCC(=O)N(c1cnc2ccccc2c1)C(C(=O)NC1CCCC1)c1ccncc1)c1ccco1 (stereo unspecified) | -2.8 | . | 1 | 15 | -10
CCN(CC(=O)Nc1ccc(OC)cc1)C(=O)c1cc(S(=O)(=O)N2CCOCC2)ccc1N1CCCC1 | 1.9 | . | . | . | -5
